Source: PubChem
TAR Tat displ: HIV-1 TAR-Tat binding disruption | z-score (test concentration not listed) | 100,000 compounds, 0.6% hits | HIV-1 TAR RNA, Tat peptide displacement FRET; hits give high values;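 note: score is relative to mean and SD of negative controls; some compounds called inactive have numbers as strong as hits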
CDC25B CDK2 inh: human CDC25B-CDK2/CyclinA binding inhibition; 94,000 compounds, 0.72% hits; HTRF CDC25B-CDK2/CyclinA binding, anti-His/anti-Flag; hits give high values; P30305+P24941; z-score (concentration not given with the values);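 note: score is relative to mean and SD of negative controls; strong numbers were not always called active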
* = called active by the depositor; / = no result given.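 Rule for the calls: active = z-score from 3 up in half or more of its runs; inactive = the rest.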

The first 5 compounds, to show the layout:
molecule,TAR Tat displ,CDC25B CDK2 inh
COc1cc(OC)c(C2Nc3cccc4cccc(c34)N2)c(OC)c1,2.6,-3
CC(C)C(NS(=O)(=O)c1cccs1)C(=O)NCCCN1CCOCC1 (centres undefined),0.56,/
COC(=O)c1sc2cc(Cl)ccc2c1OC(C)C,/,0.08
Cc1ccc(-c2noc(CNS(=O)(=O)c3ccc(F)cc3)n2)cc1,1.7,-1
O=C(CCCN1C(=O)CSc2ncccc21)NCC1CCCO1 (centres undefined),0.2,0.27

Results, from the start:
molecule,TAR Tat displ,CDC25B CDK2 inh
COc1cc(OC)c(C2Nc3cccc4cccc(c34)N2)c(OC)c1,2.6,-3
CC(C)C(NS(=O)(=O)c1cccs1)C(=O)NCCCN1CCOCC1 (centres undefined),0.56,/
COC(=O)c1sc2cc(Cl)ccc2c1OC(C)C,/,0.08
Cc1ccc(-c2noc(CNS(=O)(=O)c3ccc(F)cc3)n2)cc1,1.7,-1
O=C(CCCN1C(=O)CSc2ncccc21)NCC1CCCO1 (centres undefined),0.2,0.27
COc1cc(NS(=O)(=O)c2ccc(-c3ccc(=O)[nH]n3)o2)cc(OC)c1,1.1,/
O=C(c1cccc(Br)c1)N1CCN(Cc2cc(=O)c3ccccc3[nH]2)CC1,-0.27,/
N#Cc1nc(-c2ccc(COc3ccccc3)o2)oc1NCCCn1ccnc1,0.65,-2.5
CCOC(=O)c1c(NC(=O)C2(C)Cc3ccccc3C(=O)O2)sc2c1CCCC2 (centres undefined),1.8,-3.8
O=C(c1cccc2c1OCCCO2)N1CCSCC1,/,-1.6

Full records from above:
`N#Cc1nc(-c2ccc(COc3ccccc3)o2)oc1NCCCn1ccnc1` is entered as TAR Tat displ = 0.65; CDC25B CDK2 inh = -2.5
`COc1cc(NS(=O)(=O)c2ccc(-c3ccc(=O)[nH]n3)o2)cc(OC)c1` is entered as TAR Tat displ = 1.1; CDC25B CDK2 inh = /

Next records:
molecule,TAR Tat displ,CDC25B CDK2 inh
Nc1nc(-c2cccnc2)nn1C(=O)c1ccc(Cl)cc1,-0.93,-0.79
Cc1ccc(C)c(N2C(=O)N(Cc3ccc(F)cc3)C3CS(=O)(=O)CC32)c1 (centres undefined),-0.68,/
O=C(Cc1c(C(=O)O)[nH]c2ccc(Cl)cc12)Nc1ccc2c(c1)OCCO2,/,-0.92
CN(Cc1ccco1)C(=O)Cn1cnc(S(=O)(=O)N2CCCCC2)c1,-0.1,/
Cc1sc2ncn(CC(=O)NCCCC(=O)N3CCN(c4ncccn4)CC3)c(=O)c2c1C,/,0.39
CCc1nnc(SC(CC)C(=O)Nc2ccccc2OC)c2cc3occc3n12 (centres undefined),-7.2,/
CCCN(CCC)S(=O)(=O)c1ccc(C(=O)SCC(=O)OCC)cc1,/,-0.72
O=C(NCc1cccs1)c1cc(CN2CCOCC2)on1,1.1,/
CCOC(=O)N1CCN(c2nc(-c3ccc(OC)c(OC)c3)cc(C(F)(F)F)n2)CC1,-0.07,-1.4
Cc1cccc(-c2nc(COc3ccc(Cl)c(C)c3)no2)c1,-1.3,-0.14
COc1ccc2[nH]cc(CCn3ccc4nc(SC)ncc4c3=O)c2c1,-0.61,-0.42
CC(C)c1nc2ccccc2n1Cc1ccccc1F,0.36,-1.9
S=C1NN=C(c2ccccc2)CS1,/,-1
CC1=C(c2ccc(Cl)cc2)S(=O)(=O)N=C1Nc1ccc(C)cc1C,1.1,-1
COC(=O)C1CCN(C(=O)C2(c3cccs3)CCOCC2)CC1,0.86,/
O=C(NCc1cccs1)C1CCCN(S(=O)(=O)N2CCOCC2)C1 (centres undefined),0.89,/
COc1ccc(CN2CCC(N3CCN(CCO)CC3)CC2)c(OC)c1,0.04,-0.53
O=C(CSc1nnc(N2CCOCC2)c2ccccc12)N1CCc2ccccc2C1,-0.36,-1.1
COc1ccccc1-n1c(C)coc1=O,/,-1.4
CC1=C(c2ccc(C)c(C)c2)S(=O)(=O)N(Cc2ccc(C(=O)O)cc2)C1=O,0.59,0.62
C=CCNC(=O)C1=CC(c2cccs2)=NS(=O)(=O)N1C,1,-1.8
CCOC(=O)N1CCc2c(sc3c2C(=O)NC(c2cc4c(cc2Br)OCO4)N3)C1 (centres undefined),0.7,0.26
Nc1nc(SCC(=O)NCCCN2CCOCC2)nc2sc3c(c12)CCC3,-0.1,-1.2
N/C(=N\OCc1cc(Cl)cc2c1OCOC2)c1ccc(Cl)cc1,/,-1.1
C=CCOc1ccc(C2c3c(oc4ccccc4c3=O)C(=O)N2c2nnc(C(C)C)s2)cc1 (centres undefined),0.31,0.14
Cc1oc2cc(Br)c(OCC(=O)OC(C)(C)C)cc2c1C(=O)OC(C)C,1.8,-2.2
O=C(CN1CCCCC1)Nc1nc(-c2ccc(Cl)cc2)cs1,/,-2.1
O=C(CCc1nnc2ccc(NCc3ccc4c(c3)OCO4)nn12)Nc1cccnc1,1.6,/
N#Cc1c(NCc2cccs2)ccc([N+](=O)[O-])c1NCc1cccs1,/,-1.6
O=C(c1cccc(Br)c1)N1N=C2CCCCCC2C1(O)C(F)(F)F (centres undefined),/,-1.4
Cc1[nH][nH]c(=O)c1C(c1ccc(OCc2ccccc2Cl)cc1)c1c(C)[nH][nH]c1=O,0.97,-0.16
COc1ccc(N2C(=O)C3N=NN(CC(=O)Nc4ccc(F)c(Cl)c4)C3C2=O)cc1OC (centres undefined),1.5,/
O=c1[nH]c2ccccc2n1CCCSc1nc2ccccc2[nH]1,/,-3.5
O=S(=O)(Nc1cccc(-c2ccc(N3CCCCC3)nn2)c1)c1cccs1,1.1,/
CN(CC1CCN(c2ncccc2N)CC1)C1CCCCC1,-3.9,/
CCOC(=O)c1c(S(=O)(=O)N2CCN(C3CCCCC3)CC2)c(C)n(C)c1C,0.78,/
O=C(COc1ccccc1)Nc1nc2ccc(Cl)cc2o1,-0.39,/
O=C(CSc1nnc2ccc3ccccc3n12)c1ccccc1,0.89,-0.84
C=CCSc1nnc2c(n1)OC(c1ccc(OC(C)=O)c(OCC)c1)N(C(C)=O)c1ccccc1-2 (centres undefined),-0.16,0.48
CCOc1ccc(-c2cc(=O)c3cc(O)ccc3o2)cc1,2.6,1.2
Cc1cccc(C)c1NC(=O)CSC(=O)c1ccc([N+](=O)[O-])cc1,/,-0.6
O=C(c1cc(-c2ccncc2)n[nH]1)N1CCc2ccccc21,0.53,/
NC(=O)CSc1nnc(-c2cc3ccccc3o2)n1-c1ccccc1,0.46,/
CCOC(=O)C1(C(F)(F)F)N=C(N(C)C)Oc2c1c(C)nn2-c1ccccc1 (centres undefined),2.3,-0.94
Nc1cc(-c2cccc(Cl)c2)nn1-c1ccc(S(N)(=O)=O)cc1,/,-1.9
O=C(N1CCN(c2ccccn2)CC1)N1c2ccccc2Sc2ccccc21,/,1.8
CC(C)(O)C1CCN2Cc3ccccc3N=C12 (centres undefined),1.9,/
COc1ccc2c(C(O)CN3CCN(c4ccc(F)cc4)CC3)c[nH]c2c1 (centres undefined),-0.09,-0.27
Cc1cccc2[nH]c(SCc3cc4c(cc3Cl)OCO4)nc12,-0.01,-1.6
O=S(=O)(c1ccc(C2CCCCC2)cc1)N1CCOCC1,-0.03,-0.35

The list continues.
molecule,TAR Tat displ,CDC25B CDK2 inh
CCN(CC(=O)N/N=C(/C)C(=O)O)c1ccccc1,/,-1.3
CC(CC(=O)NCCc1c[nH]c2ccccc12)CC1=NS(=O)(=O)c2ccccc2N1 (centres undefined),/,-2
CCc1nnc2ccc(C(=O)O)cn12,0.45,0.04
Fc1cccc(-c2nc3ncccn3c2NCc2ccc(Cl)cc2)c1F,1.1,/
COc1ccc(C2C3=C(CC(C)(C)CC3=O)NC3=C2C(=O)CC(C)(C)C3)cc1,-1.9,-0.81
COc1ccc(C2=C(C)C(=NCCCOC(C)C)NS2(=O)=O)cc1,0.51,-1.9
CN(CC(=O)N1CCCC1)S(=O)(=O)c1ccc2c(c1)CCCC(=O)N2,0.7,/
CC1=C(c2ccc(C)c(C)c2)S(=O)(=O)N=C1Nc1ccc(C)cc1C,-1.2,-3
O=S(=O)(Nc1cccc(-c2nnc(Cc3ccc4c(c3)OCO4)o2)c1)c1ccc(F)cc1,-0.71,/
NC(=O)CC(CC(N)=O)c1c(Cl)cccc1Cl,/,1.1
COc1ccc(-c2noc(COc3cc(C)cc(C)c3C)n2)cc1,/,-1.2
CC(C)(C)c1ccc(Oc2c(C(F)(F)F)oc3cc(O)ccc3c2=O)cc1,1.3,-1.3
CC(C)CCN1CCC(CNC(=O)C2CCN(c3ccc(-c4cccs4)nn3)CC2)CC1,1.6,/
Cc1sc2c(c1C)c(=O)n(-c1ccccc1)c(=O)n2Cc1cc(=O)n2ccccc2n1,/,0.02
Cc1cc(=O)n2nc(N3CCC(C(=O)NCCC4=CCCCC4)CC3)sc2n1,1.5,-1.8
CCOc1ccc(Cn2c(CN)nc3cccnc32)cc1,-0.32,0.05
COc1ccc(S(=O)(=O)N(CCc2ccccc2)CCS(=O)(=O)N2CCNCC2)cc1,0.45,/
CS(=O)(=O)N1CCC(C(=O)O)CC1,2.6,/
COc1ccc(C2C(C#N)=C(N)Oc3n[nH]c(C)c32)cc1OCc1ccc(C(=O)OCC(C)C)cc1 (centres undefined),3.3,-0.62
CCCCCCCn1c(SCC(N)=O)nc2c1c(=O)[nH]c(=O)n2C,0.16,-0.97
O=C(CSc1ccc(C(F)(F)F)cc1[N+](=O)[O-])Nc1ccccc1,/,-3.3
Cc1nn(CC(=O)NC2CCCCC2C)c(=O)c2cc3cc(F)ccc3n12 (centres undefined),0.17,0.11
Cc1ccccc1S(=O)(=O)N1CCN(c2cc(-c3ccccc3)ncn2)CC1,3,/
CC1CCN(CCCNS(=O)(=O)c2ccc3c(c2)NC(=O)C(C)CS3)CC1 (centres undefined),0.92,/
COc1ccccc1CNc1ncc(-c2ccccc2)n1C,2.2,-2.5
COc1ccc(OC)c(C2C3=C(CC(C)(C)CC3=O)Nc3ncnn32)c1 (centres undefined),1.7,/
CCN1CCN(c2c(S(=O)(=O)c3ccc(Cl)cc3)cnc3cc4c(cc23)OCCO4)CC1,2.1,-1.1
O=C1C=C(c2ccc(Cl)cc2)OC2(CCCCC2)O1,/,0.21
CCOC(=O)/C(C#N)=C/N=C(N/N=C/c1cccs1)SC,/,-1.8
CCc1cc(Nc2cccc(Cl)c2)n2ncnc2n1,0.95,-0.57
CC1CSc2ccc(S(=O)(=O)N(CCN3CCOCC3)Cc3ccco3)cc2NC1=O (centres undefined),1.5,/
O=C(O)c1ccc(S(=O)(=O)c2ccc3c(c2)C(=O)N(c2ccncc2)C3=O)cc1,/,-2.3
S=c1[nH]nc(-c2cnccn2)s1,/,-1.3
NC[C@@H]1OC(O[C@H]2[C@@H](O)[C@H](O[C@@H]3[C@@H](O)[C@H](N)C[C@H](N)[C@H]3O[C@H]3O[C@H](CN)[C@@H](O)[C@H](O)[C@H]3N)O[C@@H]2CO)[C@H](N)[C@@H](O)[C@@H]1O (some centres undefined),2.5,/
CN(C)CCNC(=O)c1ccc(Cn2c(SCc3ccc(F)cc3)nc3cccnc32)cc1,-0.2,/
CCOC(=O)N1CCN(C(=O)c2cc(S(=O)(=O)N3CCCCC3)c[nH]2)CC1,0.74,/
CCOC(=O)N1CCN(c2c(N3CCCCC3)c(=O)c2=O)CC1,2.1,-1.6
COc1cc2c(cc1OC)C(C(=O)O)C(c1cc(Cl)ccc1O)N(C)C2=O (centres undefined),/,-0.76
CCOC(=O)C1CCN(CC(=O)c2ccc(OC)cc2)CC1,/,-1.5
COc1ccc(CNS(=O)(=O)c2cc(-c3cc(C)no3)ccc2C(C)C)cc1,1.4,/
O=C(Nc1nnc2n1CCS2)c1ccccc1Br,0.71,/
COc1ccc(NS(=O)(=O)c2ccc(S(=O)(=O)N(C)C3CCCCC3)cc2)c2ncccc12,-1,-2.2
Cc1ccc(C)c(CSc2nn3c(=O)c(C)nnc3s2)c1,0.98,/
CC(=O)OCC(=O)[C@@]1(O)CCC2C3CCC4=CC(=O)CC[C@]4(C)C3[C@@H](O)C[C@@]21C (some centres undefined),-0.18,/
CC1=C(C(=O)OCCOC(C)C)C(c2cccs2)C2=C(CC(c3cccs3)CC2=O)N1 (centres undefined),0.4,0.79
CN(CC(=O)N1CCc2ccccc2C1)S(=O)(=O)c1cnc[nH]1,-0.57,-0.03
CCOC(=O)C1CCCN(C(=O)Cn2nc(CC)n3c(cc4occc43)c2=O)C1 (centres undefined),0.92,-0.11
CCOc1ccc(S(=O)(=O)N2CCC(c3ccncc3)CC2)cc1,1.1,/
COC(=O)c1nc2n(n1)C(c1ccc(Cl)cc1)C1=C(CCCC1=O)N2 (centres undefined),/,-0.73
Cc1cc(S(=O)(=O)NC(c2ccc(Cl)cc2)c2nnc(-c3ccccc3)o2)ccc1F (centres undefined),0.35,/
Cc1cc(C(=O)NCc2ccco2)no1,-0.03,-0.05
O=C1c2ccccc2S(=O)(=O)N1Cc1ccc(Br)cc1,/,1
